RecA intein inh = Mtb RecA intein splicing inhibitors, primary screen, biochemical, fluorescence, HTS; AID 2221, 2009; cell-free RecA intein splicing; inhibition, %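 (about 9 µM by stock and volumes)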; hit rate 0.75% among 290,000; Protein RecA (Mycobacterium tuberculosis (strain ATCC 25618 / H37Rv)), P9WHJ3; in the data active means inhibition above about 30%; inconclusive means no clear call, values can overlap the other calls;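 further: 0% = vehicle wells and 100% = reference inhibitor control wells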
Target sequence (P9WHJ3 whole entry, looked up): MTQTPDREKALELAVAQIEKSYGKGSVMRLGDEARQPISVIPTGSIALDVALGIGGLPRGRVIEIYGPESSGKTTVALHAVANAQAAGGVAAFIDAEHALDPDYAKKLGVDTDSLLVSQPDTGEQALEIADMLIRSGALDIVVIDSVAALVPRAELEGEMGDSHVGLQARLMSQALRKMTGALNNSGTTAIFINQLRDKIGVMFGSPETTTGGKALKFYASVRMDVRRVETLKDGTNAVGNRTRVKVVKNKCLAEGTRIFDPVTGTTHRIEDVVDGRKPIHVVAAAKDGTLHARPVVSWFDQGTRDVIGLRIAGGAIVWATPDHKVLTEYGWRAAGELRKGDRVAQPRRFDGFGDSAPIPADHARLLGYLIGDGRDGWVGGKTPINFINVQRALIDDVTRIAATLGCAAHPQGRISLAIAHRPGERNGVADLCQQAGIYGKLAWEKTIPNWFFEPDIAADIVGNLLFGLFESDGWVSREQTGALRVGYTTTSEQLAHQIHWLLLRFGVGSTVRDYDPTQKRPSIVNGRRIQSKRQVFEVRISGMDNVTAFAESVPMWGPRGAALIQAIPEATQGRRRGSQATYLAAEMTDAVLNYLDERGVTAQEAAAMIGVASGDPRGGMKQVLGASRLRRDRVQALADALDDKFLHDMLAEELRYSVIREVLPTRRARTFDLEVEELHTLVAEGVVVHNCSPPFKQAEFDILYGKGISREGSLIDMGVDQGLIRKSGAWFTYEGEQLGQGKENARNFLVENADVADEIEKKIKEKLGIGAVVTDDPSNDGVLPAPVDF
Arbovirus inh = antivirals against arbovirus infection, primary screen, cell-based, full library, 10K replicate subset. arbovirus infection cell-based antiviral screen. inhibition, % at 10 µM. hit rate 0.37% among 200,000. AID 1251, 2008;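 active means inhibition from about 30%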;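 further: bluetongue infection of BSR cells; cell survival read as ATP light after 72 h; 0% = infected wells without compound and 100% = uninfected wells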
YopH PTP inh = YopH tyrosine phosphatase inhibitors, primary screen, biochemical, fluorescence Ex485/Em525. hit rate 0.16% among 140,000. inhibition, %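 (about 10 µM by stock and volumes)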. AID 898, 2007. YopH tyrosine phosphatase [Yersinia enterocolitica];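 active means inhibition of 50% or more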;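 further: controls were vehicle for no effect and minimum signal wells for full effect; inactives centre near -20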
Mtb H37Rv = M. tuberculosis H37Rv growth inhibitors, H37Rv strain (AID 1626); M. tuberculosis H37Rv growth inhibition; higher % means a stronger effect; inhibition, % at 10 µM, or IC50 in µM where a hit was titrated; hit rate 0.95% among 220,000;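 active means confirmed in a dose series; inconclusive means inhibition above 80% but not taken into the dose series; inactive means below 80% or under 30% at every dose of the series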;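 further: bacteria incubated seven days before Alamar blue readout; 0% = bacteria only wells and 100% = bacteria with antibiotic wells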
Mtb bLac sens = beta-lactam sensitization of Mtb H37Rv, H37Rv; AID 434955, 2010; hit rate 0.27% among 330,000; inhibition, % at 25 µM; M. tuberculosis H37Rv growth with meropenem, percent inhibition; hits of this screen are not shown here;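 active means about 74% or more and at least 40 points above the plate without the antibiotic, then above 30% in a dose series; inconclusive means first-round hits that could not be retested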;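 further: growth measured after seven days incubation then overnight dye step; 0% = bacteria only wells and 100% = bacteria with antibiotic; twin plates without the antibiotic show which effects depend on it; some results filed as inactive read as strong as hits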
Active calls of the source: *.

Results for Cn1c(SCCN2CCOCC2)nc2sc3c(c2c1=O)CCCC3 ?
RecA intein inh: -0.5; Mtb bLac sens: -3

Results for O=C1OC(C(=O)Nc2ccccc2)Cc2ccccc21 (configuration not stated) ?
RecA intein inh: -6.4; Arbovirus inh: 27; Mtb H37Rv: -1%; Mtb bLac sens: 4

How did CC1=NN(c2ccccc2)C(=O)C1N=Nc1cccc(O)c1 (configuration not stated) do in these assays?
RecA intein inh: 2.8; Mtb bLac sens: 77

Results for COc1ccc(CCC(=O)Nc2ncc(C)s2)cc1 ?
RecA intein inh: -0.7; Mtb bLac sens: -4

Results for O=C(NCc1ccccn1)C12CC3CC(CC(C3)C1)C2 ?
RecA intein inh: -4.9; Arbovirus inh: -3; Mtb H37Rv: 1%; Mtb bLac sens: -12

How did S=c1[nH]ccn1Cc1ccccc1 do in these assays?
RecA intein inh: -0.6; Arbovirus inh: 3; Mtb H37Rv: 3%; Mtb bLac sens: -8

Results for O=C(OCCCCN1C(=O)c2ccccc2C1=O)c1n[nH]c2ccccc12 ?
RecA intein inh: 4.8; Arbovirus inh: 5; YopH PTP inh: -19; Mtb H37Rv: -7%; Mtb bLac sens: -7

What do the screens show for `C/C(Cn1nnc([N+](=O)[O-])n1)=N\NC(=O)c1cccc(Cl)c1`?
RecA intein inh: -12; Arbovirus inh: -3; YopH PTP inh: -22; Mtb H37Rv: 16%; Mtb bLac sens: 79

Results for O=C(CSc1nnc(NC(=O)c2c(F)cccc2F)s1)NC1CC1 ?
RecA intein inh: -2.8; Mtb bLac sens: -1

Results for CC(C)c1oc(=O)cc2c1[C@@H](O)[C@H]1OC(=O)[C@@]3(C)CC[C@@H](O)[C@@]2(C)C13 (some centres not stated) ?
RecA intein inh: -0.7; Arbovirus inh: -3; YopH PTP inh: -3; Mtb H37Rv: -5%; Mtb bLac sens: 1

How did N#C/C(=C\c1ccc(-c2nc3ccccc3s2)o1)C(N)=O do in these assays?
RecA intein inh: -14; Mtb H37Rv: 8%; Mtb bLac sens: 65

Results for CCn1nc(NS(=O)(=O)c2ccccc2)c2cc3cccc(C)c3nc21 ?
RecA intein inh: -13; Arbovirus inh: 7; YopH PTP inh: -21; Mtb H37Rv: -8%; Mtb bLac sens: -16

How did COc1ccc(CCN(C)CCCC(C#N)(c2cc(OC)c(OC)c(OC)c2)C(C)C)cc1OC (configuration not stated) do in these assays?
RecA intein inh: -1.4; Arbovirus inh: 5; YopH PTP inh: -21; Mtb H37Rv: 2%; Mtb bLac sens: -2

What do the screens show for `S=C(Nc1ccc2[nH]ccc2c1)NC1CCCCC1`?
Mtb H37Rv: -8%; Mtb bLac sens: -2

What do the screens show for `Cc1ccc(CCNS(=O)(=O)c2ccc(C)cc2)cc1`?
RecA intein inh: 1.9; Arbovirus inh: 3; YopH PTP inh: -22; Mtb H37Rv: 14%; Mtb bLac sens: -2

Results for Cc1nc2c(-c3ccccc3)c(C)nn2c(C)c1CCC(=O)N1CCOCC1 ?
RecA intein inh: -1.9; Arbovirus inh: -1; YopH PTP inh: -3; Mtb H37Rv: -1%; Mtb bLac sens: 5

What do the screens show for `Cc1nc2sc(C#N)c(N)c2c2c1CCCC2`?
RecA intein inh: -0.5; Arbovirus inh: 16; YopH PTP inh: -42; Mtb H37Rv: -19%; Mtb bLac sens: -4

What do the screens show for `Nc1ccc2nn(-c3ccc(F)cc3)nc2c1`?
RecA intein inh: -15; Mtb bLac sens: 75

What do the screens show for `CC(=O)c1cccc(NC(=S)NC(=O)c2cccc(C)c2)c1`?
RecA intein inh: 1.6; Arbovirus inh: 2; YopH PTP inh: -32; Mtb H37Rv: 2%; Mtb bLac sens: 7

What do the screens show for `CCOc1c(Br)cc(C(=O)NCCCn2ccnc2)cc1OC`?
RecA intein inh: -4.2; Mtb bLac sens: 1

How did O=C1c2oc3ccc(Br)cc3c(=O)c2C(c2cccc(F)c2)N1CCO (configuration not stated) do in these assays?
RecA intein inh: 1.7; Arbovirus inh: 0; YopH PTP inh: -7; Mtb H37Rv: 1%; Mtb bLac sens: -3

What do the screens show for `COc1cc2c(cc1OC)CN(Cc1ccc(C)s1)CC2`?
RecA intein inh: -6.8; Arbovirus inh: -2; YopH PTP inh: -12; Mtb H37Rv: -2%; Mtb bLac sens: -6

What do the screens show for `CCCC(=O)N1CCN(c2ccc(NC(=O)c3cccs3)cc2Cl)CC1`?
RecA intein inh: -1.4; Arbovirus inh: -23; Mtb H37Rv: 37%; Mtb bLac sens: 92

How did O=C(c1ccco1)N1CCN(C(c2ccccc2)c2nnnn2C2CCCC2)CC1 (configuration not stated) do in these assays?
RecA intein inh: 2.2; Arbovirus inh: -5; YopH PTP inh: -18; Mtb H37Rv: 1%; Mtb bLac sens: -5

How did Cc1ccc(N2CC(C(=O)N3CCN(Cc4ccc5c(c4)OCO5)CC3)CC2=O)cc1 (configuration not stated) do in these assays?
RecA intein inh: 1.0; Mtb bLac sens: -10

What do the screens show for `Cn1c2ccccc2c2nn(-c3ccccc3)c(=O)cc21`?
RecA intein inh: -3.9; Arbovirus inh: -4; YopH PTP inh: -14; Mtb H37Rv: -7%; Mtb bLac sens: 18

Results for CC(C)OCCCN1C(=O)c2[nH]nc(-c3ccccc3O)c2C1c1cccc(Cl)c1 (configuration not stated) ?
RecA intein inh: -1.1; Arbovirus inh: -42; YopH PTP inh: -26; Mtb H37Rv: -6%; Mtb bLac sens: 2

Results for COc1ccc(N2CCN(C(=O)CSc3nnc(NC(=O)C4CCC4)s3)CC2)cc1 ?
RecA intein inh: 5.9; Arbovirus inh: 4; Mtb H37Rv: -1%; Mtb bLac sens: 6

Results for Cc1ccccc1NC(=O)CSc1n[nH]c(-c2ccccn2)n1 ?
RecA intein inh: 0.4; Mtb bLac sens: 87

Results for CC(=O)c1ccc(NC(=O)c2cc(-c3cccs3)on2)cc1 ?
RecA intein inh: -0.9; Mtb bLac sens: 5

How did CCOc1ccc(C(=O)NC(C)C2COc3ccccc3O2)cc1 (configuration not stated) do in these assays?
RecA intein inh: -0.8; Arbovirus inh: -3; Mtb H37Rv: 0%; Mtb bLac sens: -1

Results for CC(=O)N1CCN(c2ccc(NS(=O)(=O)c3ccc(C)cc3)cc2)CC1 ?
RecA intein inh: -3.2; Mtb bLac sens: -3

What do the screens show for `Cc1ccc(-c2nc(CS(=O)(=O)CC(=O)NCc3ccc4c(c3)OCO4)c(C)o2)cc1`?
RecA intein inh: -5.2; Mtb bLac sens: 0

What do the screens show for `O=C(OCc1cccc(C(F)(F)F)c1)c1ccc[nH]c1=O`?
RecA intein inh: -2.4; Mtb bLac sens: 10

What do the screens show for `N#CCCn1cc(C(=O)N2CCCCC2)c(-c2ccc([N+](=O)[O-])cc2)n1`?
RecA intein inh: 1.5; Arbovirus inh: 1; Mtb H37Rv: 2%; Mtb bLac sens: -7

How did CN=c1scc(-c2ccc(Cl)cc2)n1C do in these assays?
RecA intein inh: -0.6; Arbovirus inh: -5; YopH PTP inh: -25; Mtb H37Rv: -4%; Mtb bLac sens: 4

What do the screens show for `NC(=O)c1ccccc1NC(=O)Nc1cccc(Cl)c1Cl`?
RecA intein inh: 0.5; Arbovirus inh: -1; YopH PTP inh: -21; Mtb H37Rv: 1%; Mtb bLac sens: -2

What do the screens show for `O=C(NCc1nnc(SCC(=O)N2CCCCCC2)o1)c1ccco1`?
RecA intein inh: -0.5; Arbovirus inh: 2; YopH PTP inh: -24; Mtb H37Rv: -7%; Mtb bLac sens: -2

What do the screens show for `Cc1ccc2c(c1)N(C(=O)CCC(=O)NCc1ccccc1)CC(C)O2` (configuration not stated)?
RecA intein inh: -0.4; Mtb bLac sens: inconclusive

How did COC(=O)[C@@]12CCCN1[C@H](c1ccc(-c3ccccc3)cc1)[C@H]1C(=O)N(C)C(=O)[C@H]12 do in these assays?
RecA intein inh: -0.1; Mtb bLac sens: -2

Already shown: an excerpt of the list.
Results for CC(=O)N1CCN(c2ccc(NS(=O)(=O)c3ccc(C)cc3)cc2)CC1 ?
RecA intein inh: -3.2; Mtb bLac sens: -3

What do the screens show for `Cc1ccc(-c2nc(CS(=O)(=O)CC(=O)NCc3ccc4c(c3)OCO4)c(C)o2)cc1`?
RecA intein inh: -5.2; Mtb bLac sens: 0

The listing continues.
What do the screens show for `COc1ccc(S(=O)(=O)Nc2ccccc2C(=O)OC2CCCN(C)C2)cc1OC` (configuration not stated)?
RecA intein inh: -0.3; Arbovirus inh: 1; YopH PTP inh: -7; Mtb H37Rv: -1%; Mtb bLac sens: -5

Results for O=C(COc1coc(CN2CCN(c3ccc(F)cc3)CC2)cc1=O)Nc1ccccc1 ?
RecA intein inh: -0.1; Mtb bLac sens: -3

What do the screens show for `CN1CCN(Cc2c(C#N)c3ccccc3n2C)CC1`?
RecA intein inh: 7.9; Arbovirus inh: 3; YopH PTP inh: -35; Mtb H37Rv: 1%; Mtb bLac sens: -24

What do the screens show for `CCOC(=O)c1c(NC(=O)CSc2nnc(-c3c[nH]c4ccccc34)n2C)sc2c1CCCC2`?
RecA intein inh: -0.3; Arbovirus inh: -13; YopH PTP inh: -28; Mtb H37Rv: 15%; Mtb bLac sens: -2

Results for CCOC(=O)c1cc2c(C)n(-c3ccc(OCC)cc3)c(C)c2ccc1=O ?
RecA intein inh: -2.9; Arbovirus inh: 17; YopH PTP inh: -22; Mtb H37Rv: -1%; Mtb bLac sens: 63

How did COc1ccc(C2C(C(C)=O)=C(O)C(=O)N2c2ccc(Br)cn2)cc1 (configuration not stated) do in these assays?
RecA intein inh: -4.2; Arbovirus inh: -1; YopH PTP inh: -27; Mtb H37Rv: -3%; Mtb bLac sens: 12

Results for CCN(CC)CCNC(=O)CCn1nc(-c2ccc(Cl)cc2)ccc1=O ?
RecA intein inh: 0.1; Mtb bLac sens: -8

Results for CCC(C)NC(=O)C(CCSC)NC(=O)c1ccccc1 (configuration not stated) ?
RecA intein inh: -1.9; Arbovirus inh: 7; YopH PTP inh: -19; Mtb H37Rv: 3%; Mtb bLac sens: -12

Results for CCOC(=O)C1=C(C)OC(N)=C(C#N)C1c1cc2ccccc2nc1N1CCCCC1 (configuration not stated) ?
RecA intein inh: 17; Arbovirus inh: -9; YopH PTP inh: -26; Mtb H37Rv: -5%; Mtb bLac sens: -9

Results for Cc1c(C)c2c(OCC(=O)NC3CC3)cc3c(c2oc1=O)CCC(C)(C)O3 ?
RecA intein inh: -2.3; Mtb bLac sens: 4

Results for O=C(Cc1n[nH]c(=O)c2ccccc12)N1CCN(c2ccc(F)cc2)CC1 ?
RecA intein inh: 0.9; Arbovirus inh: 17; Mtb H37Rv: 5%; Mtb bLac sens: -9

How did CCOC(=O)c1cn2cccnc2n1 do in these assays?
RecA intein inh: -1.8; Arbovirus inh: 5; YopH PTP inh: 16; Mtb H37Rv: 3%; Mtb bLac sens: -7

What do the screens show for `COc1cccc(NC(=O)CCNS(=O)(=O)c2cccc3nsnc23)c1`?
RecA intein inh: -3.0; Arbovirus inh: 0; Mtb H37Rv: 3%; Mtb bLac sens: -3

What do the screens show for `Cc1cc(C(=O)OCC(=O)c2c(N)n(C)c(=O)n(C)c2=O)c(C)o1`?
RecA intein inh: -2.7; Arbovirus inh: 7; YopH PTP inh: -36; Mtb H37Rv: -1%; Mtb bLac sens: -8

Results for O=C(c1c[nH]c(C(=O)C(Cl)(Cl)Cl)c1)c1ccccc1F ?
RecA intein inh: 60*; Mtb bLac sens: 6

What do the screens show for `CCCn1nc(C(=O)OCC(=O)Nc2cccc(S(N)(=O)=O)c2)c2ccccc2c1=O`?
RecA intein inh: 2.0; Arbovirus inh: 0; Mtb H37Rv: 4%; Mtb bLac sens: 2

How did CCN(CC)S(=O)(=O)c1ccc(-c2nnc(SCC(=O)Nc3nc(C)cs3)o2)cc1 do in these assays?
RecA intein inh: -0.3; Arbovirus inh: -6; YopH PTP inh: -32; Mtb H37Rv: 3%; Mtb bLac sens: 33

How did CNCCc1c[nH]c2ccccc12 do in these assays?
RecA intein inh: 1.9; Arbovirus inh: -1; Mtb H37Rv: -4%; Mtb bLac sens: 0

How did COc1cc2c(cc1OC)-c1cc(NC3CCCCCCC3)nc(=O)n1CC2 do in these assays?
RecA intein inh: 5.1; Arbovirus inh: -12; YopH PTP inh: -9; Mtb H37Rv: -3%; Mtb bLac sens: 42

How did CCOC(=O)C1=C(c2ccccc2)Nc2ncnn2C1c1cccc(OC)c1OC (configuration not stated) do in these assays?
RecA intein inh: -2.6; Arbovirus inh: 4; YopH PTP inh: -22; Mtb H37Rv: 1%; Mtb bLac sens: 1

Bioassay records (PubChem)

A portion of the library. The share of hits here may be higher or lower than overall.
